Assay outcomes: PubChem BioAssay, PCMD
Biofilm kill mix = clotrimazole potentiators killing C. albicans biofilm, primary screen, 4-compound mixtures | 120,000 tested, 0.02% active | C. albicans biofilm persisters + clotrimazole, fluorescence viability; primary screen in compound mixtures of four per well | inhibition, % at 7.6 µM;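 active = inhibition above 30.3% in the primary screen of four-compound pools, then above 30% when the compound was retested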;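 note: compounds exposed to preformed 24 h biofilms for 48 h; the number belongs to the whole pool; some results filed as inactive read as strong as hits; inactives centre near 12; 0% = biofilm with clotrimazole alone and 100% = kill control; retested singly at about 60 µM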
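Assay system: C. albicans biofilms / Medium: RPMI/MOPS medium, pH 7.0 / Schedule: biofilm formation 24 h, compound exposure 48 h, 37 °C / Measured by: Alamar Blue fluorescence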
* hit, by the source's call.

SMILES	Biofilm kill mix
OC(COc1ccc(CN2CCSCC2)cc1)CN1CCCCC1 (centres undefined)	7.6
O=c1cc(-c2ccc([N+](=O)[O-])cc2)c2ccc(O)cc2o1	17.9
O=C(Cc1ccccc1)c1ccc2c(c1)OCCO2	6.7
CC(C)c1ccccc1NC(=O)COC(=O)Cc1ccsc1	11.3
Cc1ccc(-c2cc(C(=O)OCC(=O)Nc3ncc(C(F)(F)F)cc3Cl)c3ccccc3n2)cc1	20.5
CCOC(=O)c1[nH]c2ccccc2c1NC(=O)c1ccc(S(=O)(=O)N2CCCCC2)cc1	18.3
S=C(NC1CCCCC1)N1CCc2[nH]c3ccccc3c2C1	13.2
C/C(Cc1ccccc1)=N\NC(=O)c1cc(C(C)(C)C)[nH]n1	14.4
Oc1cc2ccccc2cc1-c1n[nH]c(=S)n1Cc1ccco1	8.3
CC(C)Oc1ccccc1C(=O)NC(CO)C(=O)O (centres undefined)	10.1
Oc1ccc2oc3c(c2c1C=NCc1ccncc1)CCCC3	28.8
NS(=O)(=O)c1ccc(CCNS(=O)(=O)c2ccccc2)cc1	13.7
COc1ccccc1-n1ccnc1SCC(=O)NC(C)(C)C	8.2
CCN(CC)CCN(C(=O)c1ccc2c(c1)CCCC2)c1nc2ccc(F)cc2s1	14.1
CSc1nc(N(C)C)nc(N(C)C#N)n1	8.1
O=C(NCCc1ccc(Cl)cc1)c1ccc(CNc2c(N3CCOCC3)c(=O)c2=O)cc1	29.6
C#CCOCCOCCOCCNc1nc(N2CCN(C(=O)[C@H](Cc3ccc(O)cc3)n3cc([C@@H](N)C(C)CC)nn3)CC2)nc(N2CCN(C(=O)[C@H](Cc3cc4ccccc4[nH]3)n3cc([C@@H](N)C(C)CC)nn3)CC2)n1 (some centres undefined)	0.3
CN(C)c1ccc(CN(C(=O)/C=C/c2ccccc2Cl)C2CCS(=O)(=O)C2)cc1 (centres undefined)	16.8
CC(C)(O)C#Cc1ccc(CN2CCN(Cc3ccccc3)C(CCO)C2)cc1 (centres undefined)	-4.8
O=C1CC(c2ccccc2)=Nc2ccccc2N1Cc1ccccc1	8.9
CC1(C)NC(=O)N(CC(=O)OCC(=O)Nc2sccc2C#N)C1=O	16.7
Cn1nnnc1SCC(=O)N1CCc2ccccc21	12.3
O=C(Cn1cc(C(=O)C(F)(F)F)c2ccccc21)N1CCOCC1	19.6
CCOc1ccc2nc(SCC3CC3(Cl)Cl)[nH]c2c1 (centres undefined)	15.1
O=C(Nc1ccccc1F)c1ccc(Cn2cc(Cl)cn2)cc1	1.4

Next part; it opens with the 2 that closed the last part.
SMILES	Biofilm kill mix
CCOc1ccc2nc(SCC3CC3(Cl)Cl)[nH]c2c1 (centres undefined)	15.1
O=C(Nc1ccccc1F)c1ccc(Cn2cc(Cl)cn2)cc1	1.4
CSc1nnc(SCc2nc3sc(C(=O)O)c(C)c3c(=O)[nH]2)s1	12.9
c1ccc2c(c1)OCC(c1csc3ncnc(N4CCCCC4)c13)O2 (centres undefined)	9.5
CN(C)c1cccc(C(=O)OCC(=O)Nc2nccs2)c1	-4.5
O=C(CNS(=O)(=O)c1ccc(Cl)cc1)OCC(=O)N1CCCc2ccccc21	7.7
Cc1ccc(SCCC(=O)OC(C(=O)NC(N)=O)C(C)C)cc1 (centres undefined)	13.5
COc1cc(N2CCOCC2)ccc1C=C(C#N)C#N	6.9
Cc1cccc(C(=O)c2c[nH]cc2-c2ccccc2)c1	15.9
C/C(=N\NC(=O)Cn1cnc2ccccc21)c1cccs1	16.8
COc1ccc(CCN2CC(C(=O)NCc3ccc(F)cc3)CC2=O)cc1OC (centres undefined)	22.1
COc1ccc(C)cc1NC(=O)C(=O)N1CCCC1	7.9
O=C(NCc1ccc(Cl)cc1)C(=O)NCC1OCCN1S(=O)(=O)c1cccs1 (centres undefined)	20.9
O=C(CS(=O)(=O)c1c[nH]c2ccccc12)N1CCc2ccccc21	15.0
CNC(=O)CSc1nnnn1-c1ccc2c(c1)OCCO2	14.7
COc1cccc(CNC(=O)CCN2C(=S)NC(C)(C)CC2C)c1 (centres undefined)	7.8
C=C1C(C(=O)Nc2ccccc2)C1C(=O)Nc1ccccc1 (centres undefined)	10.6
CCOc1cc([N+](=O)[O-])c2nc(N)sc2c1	16.9
COc1cc(CNCCc2ccccc2)ccc1OCC(N)=O	14.5
COc1cc(OC)c(N(C)S(=O)(=O)c2cccc(C(=O)OCc3c(C)noc3C)c2)cc1Cl	11.7
Cc1nc(Nc2ccccc2)sc1C	8.7
CC(C)c1ccc(N(C(=O)c2cc3ccccc3oc2=O)C2C=CS(=O)(=O)C2)cc1 (centres undefined)	-12.1
Cc1[nH]n(S(=O)(=O)Cc2ccccc2)c(=O)c1N=Nc1ccccc1Cl	16.0
COc1cc(OC)c2ccc(=O)oc2c1C(CCN1CCCC1)c1ccc2c(c1)OCO2 (centres undefined)	5.1
Cc1cccc(NC(=O)CO/N=C/c2ccc3c(c2)OCO3)c1	16.6
O=c1cnnc(N/N=C/c2ccc3c(c2)OCO3)[nH]1	16.3
C/C=C/C(=O)OCC(=O)Nc1cccc(Br)c1	-0.4

Next part
SMILES	Biofilm kill mix
Cc1cc(/C=C2/SC(=O)N(CC(=O)N3CCOCC3)C2=O)c(C)n1-c1ccccc1F	9.2
COc1ccc(-c2nc3ncnn3cc2C)cc1F	0.5
CCc1ccc(OCC2c3cc(OC)c(OC)cc3CCN2C(=S)NC)cc1 (centres undefined)	5.7
CC1(C)CC2CC(C)(CN2C(=O)COC(=O)CNC(=O)c2ccc(Cl)c(Cl)c2)C1 (centres undefined)	17.2
Cc1ccc(NC(=S)N(CCN(C)C)C(C)c2ccco2)cc1C (centres undefined)	13.2
CC(=O)c1c(C)[nH]c(C(=O)COC(=O)CCSc2ccccc2)c1C	22.4
COc1cccc(C(=O)Oc2ccc(N3C(=O)CCC3=O)c(C)c2)c1	11.9
CCOC(=O)c1cc2sccc2n1CC(=O)C(C)(C)C	23.4
O=C(C(=O)N1CCc2ccccc2C1)c1c[nH]c2ccccc12	11.0
CCOc1cnc(-c2c(-c3ccccc3Cl)noc2C)o1	14.0
COc1ccccc1C(=O)N1CCN(Cc2cn[nH]c2-c2ccc(F)cc2F)CC1	-10.0
Cc1cccc(Nc2nc3ccccc3s2)c1C	16.4
NS(=O)(=O)c1ccc(CCNC(=O)CCCn2c(=O)[nH]c3ccc(Br)cc3c2=O)cc1	17.9
CC1CCCN(c2ncnc3c2cnn3-c2ccc(Cl)cc2)C1 (centres undefined)	9.6
Cc1cccc(C(=O)NNC(=O)c2ccccc2)c1	-7.6
Cc1ccc(S(=O)(=O)NN/C(=N/S(=O)(=O)c2ccccc2)c2ccccc2)cc1	6.0
CCN(CC)S(=O)(=O)c1cc(NS(=O)(=O)c2cc(Cl)ccc2Cl)ccc1C	9.0
O=C(N/N=C/c1ccc(Cl)cc1Cl)c1n[nH]c2c1CCCC2	5.3
O=C(Nc1cccc2ncccc12)C(c1ccccc1)c1ccccc1	-4.7
CCN(CC)S(=O)(=O)c1ccc(C(=O)NNC(=O)C2CCN(S(=O)(=O)c3ccc(Cl)cc3)CC2)cc1	16.6
O=C(Nc1cc(F)ccc1F)N1CCN(c2ccnc3cc(Cl)ccc23)CC1	24.9
COc1ccccc1NC(=O)c1c(C)nc2ccccc2c1C(=O)O	12.0
CC(=O)Nc1ccc(NC(=O)CSc2nnnn2-c2ccc3c(c2)OCCO3)cc1	11.8
CSC(=NC#N)N1CCN(C(=NC#N)SC)CC1	-0.9
COc1cc(N/C(N)=N/c2nc(C)cc(C)n2)c(OC)cc1Cl	12.0

Ordered by SMILES length (high to low): part of the list above
SMILES	Biofilm kill mix
O=C(NCCc1ccc(Cl)cc1)c1ccc(CNc2c(N3CCOCC3)c(=O)c2=O)cc1	29.6
C/C(=N\NC(=O)Cn1cnc2ccccc21)c1cccs1	16.8
COc1ccc(C)cc1NC(=O)C(=O)N1CCCC1	7.9
Cn1nnnc1SCC(=O)N1CCc2ccccc21	12.3

(listing goes on)
SMILES	Biofilm kill mix
Cn1c(-c2sc3cc(C(F)(F)F)cnc3c2-c2ccccn2)n[nH]c1=S	13.3
C=CCNC(=O)CSc1ncc2c(n1)-c1c(csc1SC)CC2	13.8
COc1cc(OC)c(/C=N/NC(N)=S)cc1Br	-3.4
CCOc1ccc(N2C(=O)Nc3ccccc3C2(O)C(=O)NCc2ccco2)cc1 (centres undefined)	6.0
C=CCOc1c(Br)cc(CNc2ccc(NC(=O)C(C)C)cc2)cc1OCC	19.3
CCCCCC(=O)Nc1sc(C)c(C)c1C#N	14.8
CCOc1ccccc1Oc1coc2cc(OCC(=O)O)ccc2c1=O	18.8
Cc1cc(C)cc(N2C(=O)CCN(Cc3ccccc3)C2=O)c1	27.9
O=C(O)c1ccc(Cl)c(S(=O)(=O)N2CCCC2)c1	14.2
O=c1[nH]nc(SCc2nc3ccccc3s2)n1C1CC1	9.2
COC(=O)CN1C(=S)N(c2ccc(F)cc2)C(=O)C1CC(=O)Nc1ccccc1 (centres undefined)	-13.8
Cc1cc(NC(=O)CSc2ncnc3c2cnn3-c2ccccc2)no1	13.5
O=[N+]([O-])c1ccc(O)c(/C=N/n2cnc3ccccc32)c1	20.5
CCOC(=O)C1(Cc2cccc(OC)c2)CCN(Cc2cccc(OC)c2O)CC1	19.6
CCC(=O)NC(=S)Nc1ccc(NC(=O)c2cc3ccccc3o2)c(OC)c1	25.0
CC(NC(=O)CCc1ccccc1)c1cc2c(cc1Cl)OCCO2 (centres undefined)	11.3
Cc1ccc(C2/C(=C(\O)c3c(C)nc4ccccn34)C(=O)C(=O)N2CCN(C)C)o1 (centres undefined)	18.5
CN(CCc1ccccn1)C(=S)Nc1ccc(Cl)c(Cl)c1	12.7
COc1ccc(N2CCN(CCCNC(=S)Nc3c(C)cccc3C)CC2)cc1	29.7
CCOC(=O)c1c(-c2cccs2)csc1NC(=O)c1ccco1	6.5
CCOC(=O)c1ccc(NC(=S)Nc2cccc(N)n2)cc1	18.6
O=C(Nc1ccc(S(=O)(=O)Nc2nccs2)cc1)c1ccc(=O)[nH]c1	11.6
Cc1ccc(NC(=O)Nc2cnccn2)cc1C	9.4
O=c1oc(-c2ccccc2)nc2sc3c(c12)CCC3	8.6
O=C(/C=C/c1ccccc1)NC(NC(=S)Nc1ccc(Cl)cc1Cl)C(Cl)(Cl)Cl (centres undefined)	1.4

A run of entries taken from the entries so far, as a working copy:
SMILES	Biofilm kill mix
O=c1oc(-c2ccccc2)nc2sc3c(c12)CCC3	8.6
O=C(/C=C/c1ccccc1)NC(NC(=S)Nc1ccc(Cl)cc1Cl)C(Cl)(Cl)Cl (centres undefined)	1.4

The list continues:
SMILES	Biofilm kill mix
O=C(Nc1ccc(C(=O)O)cc1)/C(=C/c1ccc([N+](=O)[O-])cc1)NC(=O)c1ccccc1	14.3
O=C(/C=C/c1ccccc1)NCCSCc1ccc(Cl)cc1	15.1
Cc1ccc(NC(=O)CCC(=O)NNC(=O)c2ccccc2)c(C)c1	14.2
O=C(OCC(=O)N1CCCc2ccccc21)c1ccc(Cl)nc1	4.1
CCOC(=O)CCSc1nc(-c2ccccc2)cc(C(F)(F)F)n1	3.2
C/C(N)=C(/C#N)C(=O)COC(=O)c1ccc(NC(N)=O)cc1	11.6
Cc1cccc(NC(=O)c2ccc(OCC3CCCO3)cc2)c1C (centres undefined)	8.1
CN(Cc1ccccc1NS(=O)(=O)c1ccc(Cl)cc1)C1CCCCC1	8.6
CC1CC(OC(=O)CN2CCCCC2)CC(C)(C)C1 (centres undefined)	13.4
Cc1ccc2nc(/N=C(\N)NC(=O)NC3CCCCC3)nc(C)c2c1	22.1
CCC(=O)Nc1ccc(N2CCC(C)CC2)cc1	-6.5
NS(=O)(=O)c1ccc(N/N=C/c2ccccn2)c([N+](=O)[O-])c1	8.3
CC(=O)/C(=N\Nc1ccc(Cl)cc1)Sc1nnc(-c2ccccc2)n1-c1ccccc1	1.1
CCOC(=O)C1(Cc2ccccc2)CCN(CC2CC=CCC2)CC1 (centres undefined)	17.2
O=C1c2cc(Cl)ccc2OC2(CCNCC2)C12CC(c1ccccc1)=NO2 (centres undefined)	20.7
COc1ccccc1-c1cc(C(=O)N2CCCc3ccccc32)no1	11.6
CC(C)c1ccc(N2CC(C)(C)C2=O)cc1	6.9
Cn1nnnc1N=N/C(=N/Nc1ccccc1)c1ccccc1	13.8
Cc1cccc(N2CCC(NCc3c(C(=O)N4CCCCC4)nc4c(C)cccn34)CC2)c1	8.6
CN(CC(=O)Nc1ccc(S(=O)(=O)N2CCCC2)cc1)Cc1c(F)cccc1Cl	14.3
COc1cc2[nH]c(=S)nc(NCc3ccccn3)c2cc1OC	6.3
COc1cccc(NC(=S)N(Cc2ccc(C(=O)O)cc2)Cc2ccc(OC)c(OC)c2)c1	13.5
Cc1cccc(-c2nnc(SCC(=O)Nc3cccc(C(=O)N4CCOCC4)c3)n2C)c1	4.0
C=CCN(C)NC(=O)Nc1ccccc1	18.0
O=C(COC(=O)C1Cc2ccccc2CN1C(=O)c1ccccc1Cl)Nc1ccc(N2CCOCC2)cc1 (centres undefined)	9.5

New compounds follow
SMILES	Biofilm kill mix
COc1ccc(NC(=S)Nc2cc(S(=O)(=O)N3CCCCC3)ccc2OC)cc1	13.5
O=[N+]([O-])c1cc([N+](=O)[O-])c2n[nH]c(-c3ccccc3)c2c1	16.5
COc1ccc(CNc2nc3ccccc3n2C)c(OC)c1	17.8
O=C(N/N=C/c1ccc(N2CCOCC2)cc1)c1ccccc1OCCOc1ccccc1	13.0
O=C(COC(=O)CCC(=O)c1ccc(F)cc1)Nc1ccccc1	9.0
O=C(CCn1ccc([N+](=O)[O-])n1)NC1CCCCCC1	10.5
Cc1ccc2nc(NC(=O)CN3C(=O)C4CC=CCC4C3=O)sc2c1 (centres undefined)	13.0
CCOC(=O)CCSc1n[nH]c(=S)s1	14.2
O=C(CSc1ncccc1C(=O)O)NC12CC3CC(CC(C3)C1)C2	15.4
O=C(CSc1nc2ccccc2c(=O)n1-c1ccc(SC(F)F)cc1)Nc1ccc(N2CCOCC2)cc1	12.8

The list is partial, so the mix of outcomes need not match the whole.
